Screening results as filed in PubChem BioAssay.
Cruzain Triton: inhibitors of Trypanosoma cruzi cruzain with detergent. P25779. Potency, µM, without a hit: max response, negative = inhibition, hits mostly inhibitors. AID 1478. purified cruzain, Z-FR-AMC fluorescence, 0.01% Triton. hit rate 0.43% among 200,000;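 also: plate controls were neutral wells for no effect and buffer without enzyme for full effect; nearly all actives have a fitted effect of over 40% in size; top concentration of the series not given in the record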
Target sequence (P25779 123-467 limits assumed): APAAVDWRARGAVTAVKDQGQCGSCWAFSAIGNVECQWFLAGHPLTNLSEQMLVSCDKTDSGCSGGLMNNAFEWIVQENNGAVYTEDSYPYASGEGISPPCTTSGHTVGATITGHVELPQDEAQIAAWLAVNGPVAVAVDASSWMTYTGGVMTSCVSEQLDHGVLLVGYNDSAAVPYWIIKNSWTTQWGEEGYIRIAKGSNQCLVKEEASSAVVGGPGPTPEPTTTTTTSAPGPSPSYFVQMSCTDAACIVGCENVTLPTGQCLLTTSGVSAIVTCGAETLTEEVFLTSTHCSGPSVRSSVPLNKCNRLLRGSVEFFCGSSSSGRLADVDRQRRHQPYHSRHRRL
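Enzyme 1.5 nM, Z-FR-AMC 2 uM, NaOAc 100 mM pH 5.5, DTT 5 mM, Triton X-100 0.01%; 15 min RT compound preincubation; kinetic ex360/em450, 60 s delta.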
MARV entry inh: blocks Marburg virus binding to or entry into cells; Marburg virus pseudotyped entry inhibition, cell reporter; control for the full effect not named in the record; about a third of the inactives were read at about 46 µM; AID 540276; Potency, µM (top dose mostly 37.8 µM), without a hit: at the highest dose activity change, negative = inhibition, actives largely listed as inhibitors; hit rate 1.8% among 300,000; active = well fitted inhibition curve with a large enough effect; inconclusive = small, poorly fitted or top-dose-only effect, or effect the other way; inactive = flat fitted curve, though single readings scatter; tested in HEK293 cells; about a fifth of its hits are not listed in these tables; also: % is scaled to controls: 0 for no effect and ±100 for the full control effect; luciferase read-out
LASV entry inh: inhibitors of Lassa virus binding or cell entry. hit rate 1.2% among 300,000. Lassa virus pseudotype entry inhibition, cell reporter; control for the full effect not named in the record. Potency, µM (series often up to 37.9 µM), for the others: at the top dose activity change, negative = inhibition, hits mostly inhibitors; active means well fitted inhibition curve with a large enough effect; inconclusive means small, poorly fitted or top-dose-only effect, or effect the other way; inactive means flat fitted curve, though single readings scatter; tested in HEK293 cells; also: % is scaled to controls: 0 for no effect and ±100 for the full control effect; nearly all actives have a fitted effect of over 50% in size; luciferase read-out
Cruzain inh noDet: inhibitors of Trypanosoma cruzi cruzain without detergent; purified cruzain, Z-FR-AMC fluorescence, no detergent; Potency, µM, for inactives: max response, negative = inhibition, hits mostly inhibitors; hit rate 2.3% among 200,000; AID 1476;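 also: plate controls were enzyme without inhibitor for no effect and buffer without enzyme for full effect; nearly all actives have a fitted effect of over 40% in size; top concentration of the series not given in the record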
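Purified cruzain at 1.5 nM, pre-incubated 15 min with compound at room temperature in 100 mM sodium acetate pH 5.5, 5 mM DTT, 0.00005% Triton X-100. Reaction started with 2 uM Z-FR-AMC; AMC fluorescence increase over 60 s gives rate.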
StopGo reporter: FMDV 2A StopGo reporter, luciferase signal; human cells with a luciferase reporter of 2A StopGo recoding; control for the full effect not named in the record; Potency, µM (series often up to 57.9 µM), inactives show top-dose signal change, negative = less light; hit rate 1.2% among 410,000; AID 1159524; active = well fitted falling curve with a large enough effect; inconclusive = small, poorly fitted or top-dose-only effect; inactive = no such curve, though single readings can be large or run the other way; tested in HEK293T cells; also: % is scaled to controls: 0 for no effect and ±100 for the full control effect; nearly all actives have a fitted effect of over 45% in size; luciferase light after 4 h
NS1 function inh: inhibitors of influenza NS1 protein function. S. cerevisiae slowed by influenza A NS1, growth recovery by OD600. Potency, µM (top dose mostly 46.1 µM), for the others: at the top dose activity, positive = more growth. hit rate 0.4% among 270,000; active means well fitted rising curve with a large enough effect; inconclusive means small, poorly fitted or top-dose-only effect; inactive means no such curve, though single readings can be large or run the other way; also: nearly all actives have a fitted effect of over 50% in size
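A cell-based growth assay was used: compounds that relieve NS1-induced slow growth of budding yeast raise OD600. Assay medium was yeast nitrogen base with ammonium sulphate and -URA supplement, pH 6.0, with 2% galactose.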
SARS PLpro yeast: inhibitors of SARS-CoV papain-like protease in yeast; S. cerevisiae expressing SARS-CoV PLpro, growth rescue; control for the full effect not named in the record; Potency, µM (highest dose often 32.9 µM), without a hit: top-dose activity, positive = growth rescue; hit rate 0.19% among 330,000; active means well fitted rising curve with a large enough effect; inconclusive means small, poorly fitted or top-dose-only effect; inactive means no such curve, though single readings can be large or run the other way; also: 0% is about no effect; nearly all actives have a fitted effect of over 55% in size; growth read by luminescence after 48 h
RE007 growth inh: less growth of the S. pombe RE007 Vpr strain; S. pombe RE007 Vpr strain, BacTiter-Glo ATP luminescence, 24 h; control for the full effect not named in the record; Potency, µM (titrated, usually from 92.2 µM), inactives show at the highest dose activity change, negative = less growth; hit rate 0.21% among 360,000; active = well fitted falling curve with a large enough effect; inconclusive = small, poorly fitted or top-dose-only effect; inactive = no such curve, though single readings can be large or run the other way;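 also: % is scaled to controls: 0 for no effect and ±100 for the full control effect; nearly all actives have a fitted effect of over 50% in size; the assay follows cell death caused by Vpr and the record does not say whether a fall means rescue or toxicity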
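Fission yeast strain RE007, carrying one chromosomally integrated HIV-1 vpr copy, was seeded at OD 0.01 in PMG+AL medium with 23 nL pinned compound. After 24 h at 30 °C and 99% humidity, viability was read by BacTiter-Glo luminescence.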
* hit, by the source's call; u = inconclusive; x = no result given; & = joins results of further samples; [ ] = remark or other dose. Unless noted, calls follow the shape of the dose curve; as a rule, active = well fitted curve in the direction sought with a large enough effect; inconclusive = small, poorly fitted or top-dose-only effect, or another doubt; inactive = no such curve, though single readings can be large; an effect the other way counts as inactive or inconclusive. Potency is read from the fitted curve at half-maximal effect.

SMILES	Cruzain Triton	MARV entry inh	LASV entry inh	Cruzain inh noDet	StopGo reporter	NS1 function inh	SARS PLpro yeast	RE007 growth inh
CCn1c(=O)c(C(=O)NCCNCCO)c(O)c2ccccc21	0.9%	8%	21%	-5%	0%	-10%	-4%	-16%
Cc1ccc(S(=O)(=O)c2cc3c(=O)n4cccc(C)c4nc3n(CC3CCCO3)c2=N)cc1 (configuration not stated)	-2.6%	2%	x	17%	x	-1%	-1%	x
Cc1ccc(N2C(=O)CN=C2Nc2nc(C)cc(C)n2)cc1	x	4%[46.1 µM]	u	x	14%	3%	1%	-11%
CN1CCC(N(C)C(=O)CCc2nc3ccccc3n2-c2ccccc2)CC1	x	u	4%	x	2%	x	-1%	-16%
Clc1ccc(OCc2cc(-c3ccccc3)no2)cc1Cl	-0.1%	7%	22%	3%	x	-3%	-6%	9%
Cn1c(N2CCN(C(c3ccccc3)c3ccccc3)CC2)nc2c1c(=O)[nH]c(=O)n2C	x	u	u	x	-27%	2%	0%	1%
Cn1c(=O)oc2cc(S(=O)(=O)Nc3ccccc3O)ccc21	1.2%	-27%[46.1 µM]	u	-6%	-1%&5%	-13%	-7%	4%
CN(Cc1nccn1C)C(=O)CCc1nnc(CCC2CCCCC2)o1	x	27%[46.1 µM]	7%	x	51%[activator]	3%	0%	-9%
C/C(=N\NC(=O)Cc1ccccc1Cl)c1cccnc1	x	-20%[46.1 µM]	23%[46.1 µM]	x	-9%	-20%	3%	-14%
NC(=O)CCCC1=NS(=O)(=O)c2ccccc2N1	1.4%	13%[46.1 µM]	1%	12%	-12%	-1%	-3%	17%
COc1ccc(-c2nc3ccccc3c(=O)n2NC(=O)c2cccnc2Cl)cc1OC	-1.0%	5%[46.1 µM]	-4%	4%	0%	21%	5%	16%
CCOc1ccc(Nc2sc(C(=O)c3ccc4c(c3)OCO4)c(N)c2S(=O)(=O)c2ccc(C)cc2)cc1	-2.6%	x	-26%[46.1 µM]	3.2µM*	-11%	x	x	x
COc1ncccc1-c1nnn(-c2ccc(Cl)c(Cl)c2)n1	x	x	x	x	46%[activator]	-5%	-1%	2%
O=C(O)C1(c2ccccc2)CCN(S(=O)(=O)c2ccc(F)c(F)c2)CC1	x	-2%[46.1 µM]	-1%[46.1 µM]	x	-3%	-15%	-1%	-5%
COc1ccc(-n2c(C)cc(/C=C3\C(=N)N4N=C(CC(=O)N5CCOCC5)SC4=NC3=O)c2C)cc1	x	x	x	x	2%	u	16%	6%
COc1cccc(C2=NOC(C(=O)NC3CCCCC3)C2)c1 (configuration not stated)	1.7%	3%	2%	9%	11%	-64%	-3%	-3%
CCNS(=O)(=O)c1ccc(NC(=O)Nc2ccc3c(c2)OCO3)cc1	x	x	x	x	7%	-4%	3%	-11%
Cc1cccc(N2C(=O)C3CC3C2=O)c1 (configuration not stated)	x	13%[46.1 µM]	1%	x	-18%	x	-5%	7%
COc1ccc(N2CCN(C(CNC(=O)c3ccc4c(c3)OCO4)c3cccnc3)CC2)cc1 (configuration not stated)	3.3%	1%&1%	6%	-3%	-13%	-1%	0%	0%
Cn1c(=O)c2c(ncn2CC(=O)OCC(=O)Nc2cccc(Cl)c2)n(C)c1=O	x	-6%[14.2 µM]	6%	x	-8%	x	2%	0%
N/C(CS(=O)(=O)c1ccccn1)=N\OC(=O)c1ccc(Cl)cc1	x	u	9%	x	44%[activator]	1%	1%	-8%
COC(=O)c1ccc(N(CC(=O)NC2CCCCC2)C(=O)CNC(=O)c2ccco2)cc1	x	3%[46.1 µM]	14%[46.1 µM]	x	1%	-10%	-6%	4%
CC1CCCC(C)N1C(=O)COC(=O)CCc1nc2ccccc2c(=O)[nH]1 (configuration not stated)	2.6%	3%	4%	-1%	-18%	-19%	20%	-1%
CC(C)Oc1cc(S(=O)(=O)N2CCCCC2)ccc1N	x	3%[46.1 µM]	-8%[46.1 µM]	x	11%	x	-4%	9%
O=C(NCCCn1ccnc1)C(=O)NCC(c1cccnc1)N1CCN(c2ccc(F)cc2)CC1 (configuration not stated)	-2.3%	11%	9%	7%	-17%	4%	0%	2%
COc1ccc(NC(=O)c2cccc(S(=O)(=O)Nc3ccc(Br)cc3)c2)cn1	-11%	u	u	-4%	-15%	-20%	-10%	-1%
CC1CCCCN1S(=O)(=O)c1ccc(C(=O)N(CCCN(C)C)c2nc3cc4c(cc3s2)OCO4)cc1 (configuration not stated)	x	u	-5%	x	-22%	-10%	-2%	1%
COC(=O)C1=CN(C2CC2)C=C(C(=O)OC)C1c1ccc(C(=O)OC)cc1	-11%	-4%	-25%	-20%	-5%	1%	-15%	5%
CCOC(=O)CNC(=O)COc1ccc(Cl)cc1Br	-6.0%	u	u	-14%	15%	-7%	-1%	14%
O=C1CC(SCCO)C(=O)N1c1ccc(Oc2ccccc2)cc1 (configuration not stated)	1.1%	-3%	u	-5%	x	-15%	-29%	-10%
CN(C)C(=O)CNC(=O)CN1C(=O)NC2(CCCc3sccc32)C1=O (configuration not stated)	x	u	-3%[46.1 µM]	x	0%	-25%	-3%	-25%
CC(=O)C1=C(C)NC(SCc2cccc([N+](=O)[O-])c2)=C(C#N)C1c1ccco1 (configuration not stated)	-6.4%	-8%	0%	6%	-16%	21%	-5%	1%
Cc1cc2ccccn2c1C(=O)Nc1cccc(Cl)c1	x	u	6%	x	41%[activator]	x	-5%	18%
CC(C)(C)NC(=O)C[n+]1ccc(C(N)=O)cc1	x	-5%	8%	x	-11%	x	1%	10%
O=[N+]([O-])c1ccc(NC(=S)NCC(c2cccnc2)N2CCOCC2)cc1 (configuration not stated)	x	0%[46.1 µM]	u	x	17%	x	0%	-16%
O=c1ccn(-c2ccccc2)[nH]1	x	10%[46.1 µM]	-4%	x	26%	x	-5%	-6%

Single records (already shown). Values in the order: Cruzain Triton	MARV entry inh	LASV entry inh	Cruzain inh noDet	StopGo reporter	NS1 function inh	SARS PLpro yeast	RE007 growth inh
Entry for CC(C)(C)NC(=O)C[n+]1ccc(C(N)=O)cc1 : x	-5%	8%	x	-11%	x	1%	10%
Entry for COC(=O)C1=CN(C2CC2)C=C(C(=O)OC)C1c1ccc(C(=O)OC)cc1 : -11%	-4%	-25%	-20%	-5%	1%	-15%	5%
Entry for O=C1CC(SCCO)C(=O)N1c1ccc(Oc2ccccc2)cc1 (configuration not stated) : 1.1%	-3%	u	-5%	x	-15%	-29%	-10%
Entry for COc1ccc(NC(=O)c2cccc(S(=O)(=O)Nc3ccc(Br)cc3)c2)cn1 : -11%	u	u	-4%	-15%	-20%	-10%	-1%
Entry for O=c1ccn(-c2ccccc2)[nH]1 : x	10%[46.1 µM]	-4%	x	26%	x	-5%	-6%

Later entries
SMILES	Cruzain Triton	MARV entry inh	LASV entry inh	Cruzain inh noDet	StopGo reporter	NS1 function inh	SARS PLpro yeast	RE007 growth inh
CCOC(=O)C(=NC1CCS(=O)(=O)C1)NNc1cc(Cl)ccc1Cl (configuration not stated)	x	9%[46.1 µM]	18%	x	0%	2%	-2%	37%
Cc1ccc(S(=O)(=O)N2CN3CCN(C3)C2)cc1	1.9%	-22%	-12%	-4%	9%	-7%	7%	-4%
CCOc1ccc2oc(=O)cc(CN3CCN(C(=O)c4ccco4)CC3)c2c1	x	21%	6%	x	0%	8%	7%	29%
COc1ccc(C2=NOC(C(=O)O)C2)cc1 (configuration not stated)	6.0%	5%	7%	0%	x	3%	12%	-5%
COC(=O)C1=C(C)N=C2SC(C)C(=O)N2C1/C=C/c1ccccc1 (configuration not stated)	-8.4%	-8%	-15%	u	-21%	11µM*	2%	15%
CN(C)C(CNC(=O)c1ccc(NS(=O)(=O)c2ccc(F)c(F)c2)cc1)c1ccccc1 (configuration not stated)	x	u	4%	x	-18%	x	13%	12%
COc1ccc(N2CCN(S(=O)(=O)CCNC(=O)c3cc(=O)c4ccccc4o3)CC2)cc1	0.2%	x	0%[46.1 µM]	-9%	-16%&0%	0%	0%	5%
CCOc1cc(CNn2nnnc2N)cc(Cl)c1OCC(=O)NC(C)(C)C	1.9%	-10%	6%	-4%	0%	-5%	1%	2%
N#Cc1cc(Cl)c(N2CCOCC2)cc1C#N	0.1%	4%[46.1 µM]	4%	0%	-10%	-12%	6%	27%
Cc1c(F)cccc1NS(=O)(=O)c1ccc2c(c1)NC(=O)CO2	x	u	u	x	8%	x	-4%	10%
CN(C)c1ccc(NC(=O)CC(NCc2ccccn2)C(=O)O)cc1 (configuration not stated)	8.4%	-18%	-1%	-1%	2%	10%	7%	-13%
CC(=O)Oc1ccc(/C=N/NC2=NS(=O)(=O)c3ccccc32)cc1	x	x	x	x	-6%	3%	3%	-7%
Cc1occc1-c1nnc(SCC(=O)N(C)CCC#N)n1N	4.9%	7%[46.1 µM]	11%	-5%	-19%	12%	10%	-2%
Cc1cccc(NC(=O)CN2CCc3cc4c(cc3C2)OCCCO4)c1	x	2%[46.1 µM]	u	x	-20%	-15%	0%	-18%
COc1ccc(CCNC(=O)c2cc3sccc3n2Cc2ccc(Cl)cc2)cc1OC	-5.0%	u	-26%[46.1 µM]	-6%	-19%	x	x	x
CC1=CC(C)C(C(=O)O)C(C(=O)N2CCN(C)CC2)C1 (configuration not stated)	x	0%[46.1 µM]	9%	x	2%	5%	-1%	6%
Cc1ccc(N(C(=O)c2csnn2)C(C(=O)NC2CCCC2)c2ccccn2)c(C)c1 (configuration not stated)	x	-13%[46.1 µM]	x	x	8%	-9%	-15%	1%
CC(=O)NCCOc1nc(N(C)C)nc(N(C)C)n1	1.4%	11%	u	5%	15%	-4%	-6%	-5%
O=[N+]([O-])c1ccc(-c2cccnc2)cc1	x	u	29%[46.1 µM]	x	2%	x	x	-1%
CN(/N=C/c1ccc(C(C)(C)C)cc1)C1=NCCN1	x	u	16%	x	6%	-4%	-1%	19%
CSc1nsc(SCC(=O)NC2CCCCC2)n1	2.5%	u	-3%	-10%	20%	-9%	1%	4%
